Mtb hypoxia inh – reduces hypoxia-regulated biosensor signal in M. tuberculosis; M. tuberculosis hypoxia-regulated fluorescent reporter, fluorescence; fluorescence inhibition, % (no concentration beside the values); 0.1% of 300,000 active; AID 1159583;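 active = 35 to 45% if threefold the growth effect, above 45% if 1.5-fold the growth effect; inactive = the rest, general growth blockers included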;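 note: wells of about 50 µL received 100 nL stock; 0% = vehicle wells and 100% = reference inhibitor wells; whole bacteria with a GFP reporter of the hypoxia response; strong numbers were not always called active; many hits fall short of the cut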
Autofluor counter – compound fluorescence in toxin protease inhibitor counterscreen | compound autofluorescence counterscreen, microsphere flow cytometry; stronger effect = higher value | fluorescence intensity (test concentration not listed) | 3.1% of 360,000 active;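 active = at least 3 SD above the mean of all compounds, about 16000 in these data; inconclusive = too few beads counted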;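 note: 100 nL of 1 mM stock went into each well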
BJeLR lethal – kills HRASV12-expressing BJeLR cells; inhibition, % (concentration not given with the values); AID 1554; 0.17% of 300,000 active; BJeLR (HRASV12) viability, CellTiter-Glo ATP luminescence, 48 h; reference of the scale not given here;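 active = replicate mean above 50%; inconclusive = above 50% but judged a plate artefact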;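 note: 50 nL library stock added to about 25 µL; numbers are from one replicate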
Sa ugtP lethal – compounds lethal to S. aureus RN4220 ugtP deletion mutant; OD600 growth, 16 h; some inactives read as strong as hits; growth inhibition, % (test concentration not listed); 0.54% of 330,000 active;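 active = z-score under -3 and OD600 up to 0.15 on both plates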;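 note: plate controls were untreated wells for no effect and antibiotic for full effect; wells of about 80 µL received 100 nL stock; the first replicate is given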
RN4220 kill – S. aureus RN4220 growth inhibition | 0.33% of 330,000 active | AID 1259311 | inhibition, % (no concentration beside the values) | OD600, 16 h;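 active = z-score of -3 or lower and OD600 up to 0.18 on both plates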;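 note: plate controls were untreated cells for no effect and reference antibiotic for full effect; stock transfer was 100 nL into about 80 µL; one replicate is shown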
PrP 5UTR inh – inhibition of PrP 5' UTR reporter expression. cell-based PrP 5' UTR mRNA reporter, plate reader. 0.35% of 340,000 active. inhibition, % (no concentration beside the values);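 active = every replicate at 50% or more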;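 note: 0 = median of the neutral control wells; tested in H4 reporter cells; numbers are from one replicate; inactives centre near -14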
Mtb hypoxia inh growth – second read-out of Mtb hypoxia inh, no call of its own (marks repeat the call); growth inhibition, %; measured here: M. tuberculosis growth (absorbance);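 0% = vehicle and 100% = reference antibiotic; read after six days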
Active calls of the source: *; ? = inconclusive; nt = not tested or not shown.

SMILES	Mtb hypoxia inh	Mtb hypoxia inh growth	Autofluor counter	BJeLR lethal	Sa ugtP lethal	RN4220 kill	PrP 5UTR inh
COc1ccc(-c2cn3c(C)c(C(=O)Nc4ccncc4)sc3n2)cc1	9	-5	5751	0	-13	2.5	-9
CCCc1c(C)nc2c(Br)cccc2c1Cl	5	4	2820	2	80	8.0	-20
Cc1ccc(NC(=O)NCC2CCN(Cc3cccc(Cl)c3)CC2)c(Cl)c1	6	-1	4758	8	1	3.6	-15
CC(CCc1ccccc1)NC(=O)C(C)OC(=O)c1ccco1 (stereo not drawn)	9	6	?	3	3	2.1	-9
COc1ccc(CNC(=O)C2CC=CC3CCN(Cc4ccc(Cl)c(Cl)c4)C(=O)C32)cc1 (stereo not drawn)	10	11	nt	nt	14	-10	nt
COc1ccc(C=C2C=C(C(C)(C)C)C(=O)C(C(C)(C)C)=C2)cc1OC	nt	nt	4135	80*	nt	nt	-20
CN(CC(=O)NNC(=O)CNC(=O)c1cccs1)S(=O)(=O)c1ccc(Cl)cc1	3	0	5538	-5	6	2.9	3
COC(=O)c1ccc(CN2CCCCC2)cc1	-2	-4	4038	-6	7	1.8	1
Cc1ccc2[nH]c(=O)c(CN(CC3CCCO3)S(=O)(=O)c3c(C)ccc4nsnc34)cc2c1 (stereo not drawn)	-2	12	19816*	0	-4	5.4	-12
COc1ccc(NC(=O)c2cc(-c3cccc(OC)c3)on2)cc1	11	2	6077	0	3	3.2	-34
COc1cc(C2CC(=O)c3cnc(N4CCN(Cc5ccccc5)CC4)nc3C2)cc(OC)c1OC (stereo not drawn)	-5	1	3106	10	7	-5.2	-22
COc1ccc(NC(C)=O)cc1CP(=O)(c1ccccc1)c1ccccc1	5	-8	3378	-10	2	1.0	-26
CC(=O)c1ccc(OCC(O)COc2ccc(C(C)=O)cc2)cc1	17	15	9363	-3	3	6.5	-7
CCOC(=O)N1CCC(NC(=O)C2=CCN(S(=O)(=O)c3ccccc3)CC2)CC1	4	6	5120	-4	4	9.4	-23
CSCC[C@H](NC(=O)Cc1c(C)c2cc3c4c(oc3cc2oc1=O)CCCC4)C(=O)O	6	16	3840	6	-6	2.7	-22
CCn1c(=O)c(C(=O)Nn2c(C)nc3ccccc3c2=O)c(O)c2ccccc21	nt	nt	2389	-15	12	44	-9
CN1CCN(CC#Cc2ccccc2)CC1CCO (stereo not drawn)	12	4	3773	-2	15	5.3	-21
O=C(NCCN1C(=O)S/C(=C\c2ccccc2)C1=O)C1CCN(S(=O)(=O)c2cccs2)CC1	6	-3	2525	7	2	6.7	-11
COC(=O)c1ccc(N=c2sc(C(=O)OC)cc(=O)n2C)cc1	5	11	5896	nt	-4	-13	-17
COc1cccc(N(C(=O)CCl)C(C(=O)NCCc2ccccc2)c2cccs2)c1 (stereo not drawn)	11	7	10974	72*	-1	3.4	-22
C=CCc1cccc(/C=N/NC(=O)C(=O)Nc2ccc(C)cc2)c1O	nt	nt	4440	-13	nt	nt	-14
Cn1nccc1C(=O)Oc1cccc(/C=N/NC(=O)c2ccccc2O)c1	nt	nt	2045	2	nt	nt	-49
O=S(=O)(NCCOc1cccc2cccnc12)c1ccc(F)cc1	2	14	9439	0	5	7.1	-28
Cc1ccc(NC(=O)CS(=O)Cc2nc(-c3ccc(C)cc3)oc2C)cc1 (stereo not drawn)	5	3	5642	-8	-6	-17	1
CC1CN(c2nc3ccccn3c(=O)c2C=O)CC(C)O1 (stereo not drawn)	3	8	4511	1	8	7.8	-25
CCc1cc(C(=O)N2CCCC(C(=O)c3ccc(C(F)(F)F)cc3)C2)n(C)n1 (stereo not drawn)	9	9	5568	2	5	4.5	4
ClC(Cl)=C(c1ccc(Cl)cc1)c1ccc(Cl)cc1	1	-2	6217	nt	43	-11	-17
CCc1ccc(/C=C(/C#N)C(N)=S)s1	23	8	2044	-4	5	6.4	-14
CCOc1ccc2oc(C(=O)N3CCN(c4ccccn4)CC3)c(C)c2c1	-4	5	5614	-2	12	1.9	-3
CC(=NNC(=O)c1ccc(O)cc1)c1ccc(N2CCOCC2)cc1	3	1	nt	nt	-4	4.9	nt
CCN(CC)C(=S)SC1CCCCN(C(=O)c2ccc(F)cc2)C1=O (stereo not drawn)	8	5	8761	5	8	3.8	-24
CCOC(=O)Cc1csc(NC(=O)COc2ccccc2OCC)n1	11	4	13405	7	5	4.3	-14
COc1cccc2c1OC1(C)CC2NC(=O)N1 (stereo not drawn)	-5	-1	nt	1	7	1.0	-15
COc1cccc(Cn2cnc3c(NS(=O)(=O)c4cc(Cl)ccc4Cl)c(C)c(C)cc32)c1	17	12	9706	-26	-35	5.4	-8
O=C(CN1C(=O)c2ccccc2C1=O)Nc1cccc(O)c1	8	5	3921	1	1	2.9	-29
NCCN1C(=O)S/C(=C\c2ccc3c(c2)OCO3)C1=O	13	11	3693	-3	1	2.8	-25
O=C(Cn1cnc2nc3n(c2c1=O)CCC3)NCc1ccccc1	-3	1	2331	-12	-6	4.1	1
CCOc1ccc(S(=O)(=O)NCCC(=O)NCc2ccc(OC)c(OC)c2)cc1	5	3	?	nt	3	3.5	-12
Cc1[nH]c2ccccc2c1CC(=O)O	9	3	10639	-6	-5	8.7	-38
COc1ccccc1N1CCN(CCCC(=O)c2ccc(F)cc2)CC1	-8	0	6112	-8	2	-1.0	-15
Cc1ccc2cc(C(c3nnnn3C3CCCC3)N3CCOCC3)c(=O)[nH]c2c1C (stereo not drawn)	-1	1	9655	-4	-2	6.0	-25
Cc1nn(Cc2ccc(Cl)cc2Cl)c(Cl)c1C=CC(=O)OCC(=O)NCC(F)(F)F	7	5	nt	nt	1	4.8	nt
Cc1cc2cccc(C)c2nc1SCC(=O)NC1CCCCC1	7	1	3627	-4	1	2.5	-17
CN1CCN(S(=O)(=O)c2ccc(N(C)Cc3cccs3)nc2)CC1	12	12	10691	-2	-2	1.1	-3
Cc1noc(C)c1C(=O)OCC(=O)Nc1ccc(S(N)(=O)=O)cc1	11	15	3879	nt	5	3.6	-9
CCCCCCCCC(=O)NC(NC(=S)N1CCOCC1)C(Cl)(Cl)Cl (stereo not drawn)	7	8	5350	2	-34	-2.7	-4
O=C1C2CCCN2C(=O)N1CCN1CCN(CCO)CC1 (stereo not drawn)	8	-1	10413	12	3	2.9	-19
CCCCOC(=O)c1ccc(NC(=O)C(=O)NCc2cccnc2)cc1	6	-2	4162	0	0	-0.2	14
CC(C)COCC(CN(Cc1ccccc1)c1ccccc1)N1CCCC1 (stereo not drawn)	2	12	6264	3	-15	-0.4	-6
Nc1c(-c2ccc(Cl)cc2)cnc2ncnn12	-1	13	23393*	-3	-18	6.2	-23

Continuation:
SMILES	Mtb hypoxia inh	Mtb hypoxia inh growth	Autofluor counter	BJeLR lethal	Sa ugtP lethal	RN4220 kill	PrP 5UTR inh
Cc1cc(C)c2c(N)c(C(=O)N/N=C/c3ccccc3)sc2n1	nt	nt	4724	-9	nt	nt	-118
COc1cc(/C=C/[N+](=O)[O-])ccc1OC(=O)/C=C/c1ccc(F)cc1	13	4	3220	1	48	11	3
Cc1cc(NC(=O)COC(=O)CSCc2ccc(Cl)c(Cl)c2)no1	4	4	22915*	7	1	6.3	-1
CC(c1ccc(Br)cc1)N1CC23C=CC(O2)C(C(=O)O)C3C1=O (stereo not drawn)	nt	nt	6592	3	6	-0.5	-1
Fc1c(F)c(C(F)(F)F)c(F)c(F)c1NN=Cc1cccs1	3	6	nt	nt	10	0.4	nt
Nc1ccc(-n2nnnc2-c2ccco2)cc1	13	13	4145	-4	-3	7.8	-2
Cc1cc(C)c(S(=O)(=O)c2cccc(Br)c2C)c(Cl)n1	0	6	3570	-3	11	-0.2	5
CNC(=O)Oc1cccc2c1OC(C)(C)O2	8	7	3019	nt	7	5.0	-17
C=CCNC(=O)c1ccccc1NS(=O)(=O)c1ccc(SC)cc1	0	1	9784	3	-6	5.7	-39
CCn1cc(C(=O)NCCc2ccc(OC)c(OC)c2)c(=O)c2cc(S(=O)(=O)N3CCOCC3)ccc21	-10	7	5783	5	-3	0.4	-8
O=C(COc1ccc(Br)cc1)Nc1ccc(C(=O)Nc2ccccc2C(=O)O)cc1	nt	nt	4696	7	nt	nt	-68
CC(NC(=O)c1ccc(CS(=O)(=O)Cc2ccccc2F)o1)c1ccc2c(c1)OCCO2 (stereo not drawn)	7	8	3130	-3	3	3.7	-24
COc1cccc(CN(C)C(=O)c2ccc(NS(=O)(=O)c3ccc4[nH]c(=O)[nH]c4c3)cc2)c1OC	-1	5	5386	1	9	2.0	-21
Cc1ccc2c(c1)N(CC(=O)N1CCCC(C)C1)C(=O)CO2 (stereo not drawn)	4	15	6168	0	6	1.4	-17
CCC(NC(=O)Nc1cc(OC)c(OC)c(OC)c1)(C(F)(F)F)C(F)(F)F	3	0	3119	2	-8	3.1	-15
Cc1c(C(=O)O)cccc1[N+](=O)[O-]	6	2	4271	nt	16	6.1	1
COC(=O)c1ccc(CSc2ccc3nnc(-c4cccc(F)c4)n3n2)o1	4	4	5697	-7	7	-0.3	-4
O=C(CCCN1C(=O)/C(=C/c2cccs2)SC1=S)NNC(=O)c1ccccc1O	18	7	1907	-9	8	32	-8
CCOC(=O)N1CCN(C(=O)COC(=O)c2ccc(Cl)nc2)CC1	9	9	3602	nt	4	1.8	-16
CCOC(=O)C1=C(C)N(C)C(C)=C(C(=O)OCC)C1c1ccc(Cl)cc1	-12	-6	2494	5	-6	7.6	8
CCn1ncc(Br)c1C(=O)Nc1ccn(C23CC4CC(CC(C4)C2)C3)n1	5	1	2192	-1	10	-4.7	-5
CC1=C(C(=O)OCc2ccccc2)C(c2ccc(Br)cc2)NC(=O)N1CCCC(=O)O (stereo not drawn)	16	7	nt	-13	4	0.8	nt
Cn1cc(C=Nn2cnc3scc(-c4ccccc4)c3c2=O)c2ccccc21	15	18	nt	nt	2	2.1	nt
CCC(C)c1ccccc1OCCCN(C)Cc1ccccc1 (stereo not drawn)	14	14	2987	-8	20	7.4	9
COc1ccc(OC)c(/C=N/NC(=O)c2[nH]nc3c2CCc2ccccc2-3)c1	nt	nt	1986	-3	nt	nt	-10
COc1ccc(NN=C(N=Nc2nc(C)cc(=O)[nH]2)c2ccccc2)cc1	14	9	nt	nt	-17	-14	nt
CCOC(=O)c1snc2c(=O)[nH]cnc12	10	15	18607*	-5	4	-2.2	-8
CCN(CC)S(=O)(=O)c1cccc(C(=O)NCCCN2CCOCC2)c1	4	14	9541	-2	3	1.5	-9
Cc1ccn2c(CNC(C)CCn3cccn3)c(C(=O)N3CCCCCC3)nc2c1 (stereo not drawn)	-2	11	5045	-4	-6	-0.8	-20
CCN(C[C@H]1N[C@@](CC)(C(=O)OC)[C@H]2C(=O)N(C)C(=O)[C@@H]12)C(=O)c1ccc(C(C)(C)C)cc1	4	7	3794	nt	1	-3.2	-15
COc1cc(OC)cc(C(=O)NC(C(=O)OCn2nnc3ccccc3c2=O)C(C)C)c1 (stereo not drawn)	16	3	8759	nt	3	2.2	-9
COc1ccccc1NS(=O)(=O)c1cc(NC(=O)c2ccco2)ccc1N1CCOCC1	-5	5	4578	10	1	3.1	-25
CCCN(CC(=O)Nc1ccccc1C)C(=O)C1CC(=O)N(c2ccc(CC)cc2)C1 (stereo not drawn)	2	-5	9011	nt	1	7.1	4
CC(OC(=O)c1ccc(Cl)nc1)C(=O)Nc1ccc(S(=O)(=O)N2CCCC2)cc1 (stereo not drawn)	nt	nt	5651	-3	nt	nt	-25

Record cards (already shown). Values in the order: Mtb hypoxia inh, Mtb hypoxia inh growth, Autofluor counter, BJeLR lethal, Sa ugtP lethal, RN4220 kill, PrP 5UTR inh
`CC(=O)c1ccc(OCC(O)COc2ccc(C(C)=O)cc2)cc1` in the list: 17, 15, 9363, -3, 3, 6.5, -7
`CCN(CC)S(=O)(=O)c1cccc(C(=O)NCCCN2CCOCC2)c1` in the list: 4, 14, 9541, -2, 3, 1.5, -9
`ClC(Cl)=C(c1ccc(Cl)cc1)c1ccc(Cl)cc1` in the list: 1, -2, 6217, nt, 43, -11, -17
`Cc1nn(Cc2ccc(Cl)cc2Cl)c(Cl)c1C=CC(=O)OCC(=O)NCC(F)(F)F` in the list: 7, 5, nt, nt, 1, 4.8, nt
`Nc1c(-c2ccc(Cl)cc2)cnc2ncnn12` in the list: -1, 13, 23393*, -3, -18, 6.2, -23
